Vif TR-FRET – inhibitors of Vif binding to APOBEC3G peptide, primary screen, biochemical, TR-FRET, GST-Vif 1-94, biotin-A3G peptide, dose response retest (AID 1117319) | TR-FRET GST-Vif / biotin-A3G peptide binding; higher % means a stronger effect; test concentration not given here; strong numbers were not always called active | inhibition, %; hits with a dose series show IC50 in µM | 0.57% of 260,000 active;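 active = above the screen mean plus three standard deviations and confirmed in dose response; inconclusive = results disagree or hit not tested in dose response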;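 note: Vif residues 1-94 fused to GST binding biotinylated APOBEC3G peptide 110-148; 0% = full assay without inhibitor and 100% = GST in place of GST-Vif; retest series ran down from 100 µM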
T cruzi inh – inhibitors of intracellular T. cruzi growth, primary screen, luminescence, NIH3T3 host cells. T. cruzi beta-gal in NIH3T3, 90 h. inhibition, % (no concentration beside the values). 1.4% of 300,000 active. AID 1885, 2009;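 active = mean inhibition across valid replicates above about 55%, limit read from the data; inconclusive = mean below that limit but half or more replicates reach it; inactive = mean below it, under half of replicates reach it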;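 note: signal also drops with host cell toxicity which is not excluded here; 0% = plate median of DMSO wells and 100% = zero luminescence signal; higher percent means less beta-gal luminescence so fewer parasites; stock transfer was 50 nL into about 50 µL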
A1 inh – caspase 3/7 activation in MEF A1-2A-BIM cells, primary screen, A1 inhibitor project, cell-based, luminescence, HTS | 0.066% of 330,000 active | Caspase-Glo 3/7 luminescence, 3 h; percent of clofoctol response, vehicle zero | caspase activation, % (no concentration beside the values);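 active = over half of replicate activation scores above 10%, or exactly half above 10 with the replicate mean above 10; inconclusive = replicate mean below 10 yet half the replicates above 10; inactive = over half of replicates below 10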;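 note: wells of about 30 µL received 50 nL stock; many hits fall short of the cut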
LANA-H2B inh – blockers of LANA interaction with H2A/H2B – biochemical, FP readout, HTS, primary screen; Protein LANA1 (Human herpesvirus 8 type P (isolate GK18)), Q9QR71; cell-free LANA-H2A/H2B peptide, fluorescence polarization; inhibition, % (no concentration beside the values); 0.6% of 320,000 active; AID 2629, 2010; in the data active = inhibition mostly above about 10%, no sharp cut-off; inactive = mostly below about 6.7%;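 note: stock transfer was 7.5 nL into about 10 µL; 0% = median of vehicle wells and 100% = median of positive control wells; one replicate is shown; the record names a cut of 25% in any replicate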
Target sequence (Q9QR71 whole entry, looked up): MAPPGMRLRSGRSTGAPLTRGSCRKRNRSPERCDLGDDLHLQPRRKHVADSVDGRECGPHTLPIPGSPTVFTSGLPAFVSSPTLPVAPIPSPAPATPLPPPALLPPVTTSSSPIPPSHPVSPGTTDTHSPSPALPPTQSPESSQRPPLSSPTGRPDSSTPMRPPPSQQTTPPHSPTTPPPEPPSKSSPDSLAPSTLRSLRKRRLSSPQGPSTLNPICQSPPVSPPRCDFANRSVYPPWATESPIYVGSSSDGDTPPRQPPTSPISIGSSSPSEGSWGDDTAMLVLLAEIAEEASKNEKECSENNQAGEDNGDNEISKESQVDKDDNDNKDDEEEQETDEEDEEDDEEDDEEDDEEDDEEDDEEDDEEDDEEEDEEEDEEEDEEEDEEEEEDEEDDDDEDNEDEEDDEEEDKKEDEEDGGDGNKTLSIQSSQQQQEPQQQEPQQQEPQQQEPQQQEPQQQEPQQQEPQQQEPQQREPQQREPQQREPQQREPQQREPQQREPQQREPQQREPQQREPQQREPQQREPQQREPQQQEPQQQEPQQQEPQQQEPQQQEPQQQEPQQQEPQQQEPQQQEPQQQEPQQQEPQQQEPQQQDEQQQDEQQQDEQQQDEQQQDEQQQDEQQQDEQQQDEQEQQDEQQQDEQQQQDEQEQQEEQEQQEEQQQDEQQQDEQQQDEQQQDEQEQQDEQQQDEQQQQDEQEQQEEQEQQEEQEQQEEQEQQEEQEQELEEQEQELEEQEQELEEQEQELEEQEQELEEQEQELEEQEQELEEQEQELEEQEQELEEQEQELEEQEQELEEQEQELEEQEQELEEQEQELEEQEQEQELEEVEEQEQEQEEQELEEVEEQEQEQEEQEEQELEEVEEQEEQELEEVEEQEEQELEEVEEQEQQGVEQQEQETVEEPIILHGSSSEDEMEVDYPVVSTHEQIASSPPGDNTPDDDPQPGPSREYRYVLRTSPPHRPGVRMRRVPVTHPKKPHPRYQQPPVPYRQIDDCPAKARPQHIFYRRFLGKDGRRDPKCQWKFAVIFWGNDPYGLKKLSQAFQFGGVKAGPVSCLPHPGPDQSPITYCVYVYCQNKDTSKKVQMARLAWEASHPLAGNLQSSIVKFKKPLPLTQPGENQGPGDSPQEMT
Calb FLC – C. albicans growth inhibition with fluconazole, primary screen, CaCi-2 strain, Alamar Blue fluorescence; C. albicans CaCi-2 (fluconazole-resistant clinical isolate) + fluconazole, 48 h; growth inhibition, % (concentration not given with the values); 0.57% of 300,000 active;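 active = most replicates above 75%; inconclusive = exactly half above 75%; inactive = most below 75%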;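 note: all wells also contain fluconazole at 8 µg/ml as a sub-toxic cotreatment; 0% = median of DMSO wells and 100% = median of geldanamycin control wells; wells of about 8 µL received 7.5 nL stock; the first replicate is given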
RanGTP-Imp inh – inhibitors of RanGTP-importin-beta interaction, primary screen, biochemical, FRET, CFP-Ran, YFP-importin-beta, homogeneous | Ran GTPase (GTP-bound) - importin-beta complex | cell-free CFP-Ran/YFP-importin-beta FRET ratio | inhibition, % (concentration not given with the values) | 1.1% of 300,000 active | AID 2216, 2009;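 active = most replicates above 15%; inconclusive = exactly half above 15%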;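 note: 0% = DMSO wells and 100% = Ran loaded with GDP instead of GTP; wells of about 40 µL received 100 nL stock; the first replicate is given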
Beta apoptosis – inhibitors of cytokine-induced beta cell apoptosis, primary screen, luminescence; INS-1E cytokine-induced death, ATP luminescence, 48 h; percent of positive-control rescue, neutral wells zero; AID 435005, 2010; protection from apoptosis, % (no concentration beside the values); 0.8% of 300,000 active;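 active = all replicates at 75% or more, or half of them and the mean; inconclusive = half reach 75% but not the mean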;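 note: 0% = cytokine-treated negative control wells and 100% = positive control rescue; higher means more ATP so stronger rescue from cytokine killing; wells of about 40 µL received 100 nL stock; the first replicate is given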
AF4-AF9 inh – inhibitors of AF4 peptide binding to AF9, primary screen, biochemical, AlphaScreen, biotin-AF4 peptide, FLAG-AF9, single point; Protein AF-9 (Homo sapiens), P42568; inhibition, % at 10 µM; 0.47% of 350,000 active; AID 651704, 2012;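 active = every replicate reaching a set inhibition limit, whatever the replicate mean, cut at about 25% in these data; inconclusive = mean inhibition reaches that limit but some replicates miss it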;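 note: 0% = plate neutral control median and 100% = total signal loss; the record names both 10 and 1 µM as test concentration; the first replicate is given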
Starred values were filed as active, the others as inactive; ? = inconclusive; . = not tested or not shown.

SMILES	Vif TR-FRET	T cruzi inh	A1 inh	LANA-H2B inh	Calb FLC	RanGTP-Imp inh	Beta apoptosis	AF4-AF9 inh
C[C@@H]([C@@H](O)c1ccccc1)N(C)C(=O)C(N)Cc1ccccc1 (stereo partly drawn)	.	-4	-0.7	2.7	-2	3.9	2	.
O=C(OCc1cccc([N+](=O)[O-])c1)c1cnccn1	-7%	-4	1.0	1.7	-9	-3.8	0	-3.0
Cc1ncoc1C(=O)N1CCc2c([nH]c3ccccc23)C1C(C)(C)C (stereo not drawn)	-1%	5	-0.1	-2.5	-1	2.5	-8	3.9
Cc1nc(N2CCN(C(=O)CCC(=O)O)CC2)c2c(C)c(C)sc2n1	?	-9	-0.1	0.7	5	3.5	-6	0.3
Cc1cccc(NC(=O)CNC(=O)c2cccc(S(=O)(=O)NCc3cccs3)c2)c1C	.	.	0.9	-8.3	.	.	-10	-8.5
CCN(CC)N=Nc1ccc(S(=O)(=O)N2CCSC2C(=O)O)cc1 (stereo not drawn)	-2%	-7	0.8	-3.9	-18	-2.1	-2	0.9
O=C(Nc1ccnc(-c2cccnc2)n1)c1cccc(Cl)c1Cl	2%	6	0.0	-4.6	17	0.4	-3	.
CCc1nnc(NC(=O)CSc2nnc(COc3ccccc3)n2-c2ccc(C)cc2)s1	-6%	16	0.7	0.6	21	-1.0	-8	.
NNC(=O)/C(=C/c1cccs1)NC(=O)c1ccccc1Cl	-7%	-3	-0.7	0.8	17	-4.1	5	-0.6
O=C(NN=C1CCCCCC1)c1cc(-c2ccccc2)nc2ccccc12	30%	1	0.1	1.2	1	-6.3	-3	.
O=[N+]([O-])c1ccc(CN2CCN(c3ccc4ccccc4n3)CC2)cc1	4%	15	-0.3	-11	20	-0.8	4	-2.7
CC(C)CNC(=O)COC(=O)c1cncc(Br)c1	2%	-11	-0.7	-0.6	26	-2.5	-1	.
CCCCCN1CN(S(=O)(=O)c2cccs2)c2nc3ccccc3nc21	15%	27	0.4	-6.7	21	1.7	6	7.4
CCCCc1nc2sc3c(=O)n(N)cnc3c2c2c1CCC2	-3%	24	-0.4	-3.9	13	-2.4	5	-2.1
O=C(CC(=O)N/N=C/c1cccs1)NCc1ccccc1	13%	-10	-0.1	0.4	-11	?	-5	-2.6
CC(COc1ccccc1)N(CCCl)Cc1ccccc1 (stereo not drawn)	?	-9	0.3	1.0	.	1.9	1	0.5
Cc1ccnn1CCC(=O)O	.	-14	0.7	7.0	-8	1.9	-5	0.7
O=[N+]([O-])c1ccc(Nc2cccc(F)c2)nc1	-8%	8	0.0	1.1	-24	1.0	4	8.1
Cc1cc(C)cc(OC(C)C(=O)Nc2ccc(S(=O)(=O)Nc3cc(C)nc(C)n3)cc2)c1 (stereo not drawn)	-1%	16	1.1	1.6	1	-1.1	0	.
Cc1cccn2c(=O)c3cc(C#N)c(=NC(=O)c4cccnc4)n(CC4CCCO4)c3nc12 (stereo not drawn)	.	-2	0.4	6.3	-4	154*	9	.
CCCOc1cccc(C(=O)Nc2ccc(CN3CCOCC3)cc2)c1	.	11	0.4	0.0	-5	-1.1	.	-0.1
COC(=O)c1ccc(CO/N=C/c2ccc(OC)cc2OC)cc1	-9%	-9	0.3	-4.2	-1	-0.8	-5	1.8
O=C1CC(c2ccc(F)cc2)CC2=C1C(c1ccc([N+](=O)[O-])o1)Nc1ccccc1N2 (stereo not drawn)	.	39	0.3	3.0	-2	4.0	1	.
O=C(c1cccc(NS(=O)(=O)c2ccc(F)cc2)c1)N1CCN(c2ccccc2)CC1	0%	-3	0.6	.	-1	5.7	-4	2.5
CCn1nccc1C(=O)Nc1cc(Cl)cc(Cl)c1	1%	1	0.6	-1.4	6	-1.7	0	.
CCn1c(=O)cc(OCC(=O)NC2CC2)c2ccccc21	-11%	-19	0.0	3.5	11	4.9	-3	-4.0
Cc1ccc(S(=O)(=O)NCCC(=O)NC2CCN(Cc3ccccc3)CC2)cc1	.	38	0.3	0.4	6	.	2	-1.2
CCN(CC)c1nc(N)n(CCSC(=S)N(C)C)c(=O)n1	10%	8	0.4	-4.4	3	3.6	-9	-0.5
O=C1c2ccccc2C(O)(Cc2ccccc2)N1C1CCCCC1 (stereo not drawn)	-6%	17	.	1.3	-1	-5.4	-3	.
CC(=O)N1c2ccc(S(=O)(=O)N3CCCCC3)cc2CC1C (stereo not drawn)	.	-16	0.6	1.3	12	1.5	2	-2.0
C/C(=N\NC(=O)c1ccc(Cl)cc1)c1cccnc1	0%	-13	-1.3	2.5	4	7.3	0	-0.8
CCC(Oc1ccccc1)C(=O)Nc1nnc(S(=O)(=O)N2CCCC2)s1 (stereo not drawn)	.	3	0.7	3.1	0	3.0	-8	-3.7
CCN(CC)S(=O)(=O)c1ccc(OC)c(NC(=O)C2CC(=O)N(c3ccc4c(c3)OCCO4)C2)c1 (stereo not drawn)	-1%	9	0.2	3.3	7	4.1	.	0.0
CC1CN(c2ccc(NC(=S)NNCCC#N)cc2)CC(C)O1 (stereo not drawn)	12%	-12	0.0	-8.6	2	-3.2	-2	.
CCOc1ccccc1CNS(=O)(=O)c1ccc(-c2cnc(C3CC3)o2)cc1	-2%	-1	.	.	-3	1.5	.	-4.1
CC(=O)c1ccc(NC(=S)NN2C(C)CCCC2C)cc1 (stereo not drawn)	4%	-29	0.1	-0.8	-3	0.4	-1	-1.1
COc1cc(OC)c2c(C)cc(=O)oc2c1C(CCN1CCOCC1)c1ccc2c(c1)OCO2 (stereo not drawn)	.	14	1.0	6.4	4	5.3	-4	9.8
O=C(/C=C\Nc1ccc(Br)cc1)c1cccnc1	-6%	16	-6.7	1.5	-10	1.0	1	.
COc1ccc(N(CC(=O)N2CCN(C)CC2)S(C)(=O)=O)cc1OC	-4%	4	1.1	-3.8	-10	0.1	0	.
O=C(NCc1ccco1)c1ccc(Cn2c(=S)[nH]c3ccccc3c2=O)cc1	-3%	3	-0.2	-4.3	31	-0.7	6	-1.6
COC(=O)c1cc(NS(=O)(=O)c2ccc(Cl)c(N3C(=O)c4ccc(C(=O)O)cc4C3=O)c2)cc(C(=O)OC)c1	.	-8	0.3	4.1	-3	-1.8	-2	.
CCOc1ccc(NC(=O)Nc2cc(C(C)C)ccc2C)cc1	-4%	-9	.	.	-3	5.9	.	-2.6
COc1cc(OC)c2cc(C(=O)N[C@H](C(=O)N3CCC[C@H]3C(=O)O)C(C)C)n(C)c2c1	.	-2	-0.2	-3.7	-2	3.0	-6	-2.1
Cc1cc(=O)oc2cc(OCC(=O)NC(Cc3c[nH]c4ccc(O)cc34)C(=O)O)c(Cl)cc12 (stereo not drawn)	.	-10	0.1	-5.6	0	5.1	-2	-3.3
Cc1ccc(S(=O)(=O)N2CCN(C(=O)CSc3ncc(C(F)(F)F)cc3Cl)CC2)cc1	1%	17	0.3	-9.8	2	-1.2	6	.
CC(=O)c1nn(-c2ccccc2)cc1C(=O)c1cccc(Br)c1	.	-14	-0.1	3.6	1	2.4	-10	-3.8
CC(=O)NS(=O)(=O)c1ccc(NC(=O)C(C)NS(=O)(=O)/C=C/c2ccccc2)cc1 (stereo not drawn)	.	.	-0.4	1.0	.	.	-4	-5.9
O=C1CCCN1CCC(=O)N1CCCC(Nc2ccc(F)cc2)C1 (stereo not drawn)	5%	-10	0.2	-1.7	9	0.7	-1	-5.8
COc1ccc(OCC(O)CNC(=O)/C=C/c2cccc([N+](=O)[O-])c2)cc1 (stereo not drawn)	-6%	5	-0.6	2.7	-2	2.9	3	-2.4
CC1CCN(C(=O)COc2ccc3ccccc3c2Br)CC1	.	9	-0.1	-1.5	1	0.3	-23	-4.4
COc1ccc(-n2ncc3c2CC(C)(C)CC3NC(=O)CSc2ccccn2)cc1 (stereo not drawn)	-6%	3	0.4	-1.5	23	1.3	10	0.9
CCOc1ccc(OCCC(=O)N2CCN(S(=O)(=O)c3cccc(F)c3)CC2)cc1	12%	7	-0.1	-3.6	-8	.	-2	-7.2
C/C(CC(=O)Nc1cccc(Cl)c1Cl)=N\NC(=O)C(=O)N1CCCC1	-4%	-4	-5.6	-2.8	7	1.9	-7	0.9
COc1ccc(-n2cnnc2SC(C)c2nc3sc(C)c(C)c3c(=O)[nH]2)cc1 (stereo not drawn)	7%	-16	.	.	-6	4.1	.	.
COc1ccc(-n2c(=O)c3ccccc3n(Cc3cccc(C)c3)c2=O)cc1OC	-3%	-13	1.1	-2.0	2	7.5	-7	3.3
O=C(c1cc(COc2ccc(F)cc2F)on1)N1CCN(C2CCCC2)C(=O)C1	74%	-11	-0.2	-4.7	-3	-2.5	-5	-8.4
C=CCN1C(=O)c2ccc(C(=O)N3CCN(S(=O)(=O)c4ccc(C(C)C)cc4)CC3)cc2C1=O	-1%	-8	0.7	6.5	-4	2.7	.	3.4
O=C(Nc1cccnc1)c1c(F)cccc1F	9%	-1	0.8	-2.4	-3	-0.4	-1	-2.3
O=C(O)CC(NCc1ccco1)C(=O)OCC1CCCO1 (stereo not drawn)	6%	-6	0.2	1.7	6	3.4	5	.
COc1ccc(C(NC(N)=O)c2ccccc2)cc1 (stereo not drawn)	5%	-29	0.3	3.1	10	5.2	-5	.

Remaining list, next part
SMILES	Vif TR-FRET	T cruzi inh	A1 inh	LANA-H2B inh	Calb FLC	RanGTP-Imp inh	Beta apoptosis	AF4-AF9 inh
Cc1cccc(N2C(=O)CN(Cc3ccccc3)C2=S)c1	4%	17	0.1	-1.3	1	0.7	-1	-1.3
CCOc1ccccc1CNC(=O)c1cn(C)c(=O)c2c1c1ccccc1n2C	-10%	4	-0.3	-3.0	-2	1.0	13	3.6
COC(=O)c1ccc(SCc2cnc(Cl)s2)cc1	-6%	-9	-2.8	-2.8	-22	-1.2	-15	.
CCn1cnc2cc(NCc3ccc(N(C)C)cc3)ccc21	-7%	31	-0.1	0.7	-3	3.5	2	19
O=C(Cc1ccccc1Cl)Nc1cccc(S(=O)(=O)N2CCOCC2)c1	.	-13	0.1	-0.1	13	2.7	3	-12
COc1ccc(CNC(=O)C2CCC(=O)N(CCCN3CCCC3=O)C2)c(OC)c1 (stereo not drawn)	.	-7	1.6	2.7	0	0.2	-4	0.6
O=C(OCC(=O)N1CCN(c2ccccc2)CC1)c1ccc([N+](=O)[O-])s1	.	.	-0.3	2.2	.	.	1	1.3
COc1ccc(NC(=O)CCN2CCN(S(=O)(=O)c3ccc(F)cc3)CC2)cc1	2%	0	0.1	0.4	12	-3.6	-4	-0.7
Cc1c(CCC(=O)NCC(=O)O)c(=O)oc2cc3occ(-c4ccccc4)c3cc12	-1%	-3	-0.7	-1.0	5	-1.8	3	2.3
